# UUG fidelity: alters start codon recognition fidelity in yeast; AID 602363; activity score, % at 18.7 µM; S. cerevisiae UUG-firefly luciferase reporter, luminescence/redox ratio; hit rate 0.13% among 350,000;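 active means replicate mean at a twofold rise or more, about +100% in these data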;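 further: firefly luciferase made from a UUG start codon reports start codon fidelity; reporter light over untreated wells divided by growth signal over untreated wells; some hits fall short of that in this replicate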
# An asterisk follows results filed as active. A portion of the library, so the mix of outcomes need not match the whole.
structure	UUG fidelity
O=C(C[C@@H]1CC[C@@H]2[C@H](COC[C@@H](O)CN2C(=O)Nc2ccccc2)O1)NCc1ccccc1F	-6
C[C@H](NC(=O)C[C@@H]1CC[C@@H]2[C@H](COC[C@H](O)CN2C(=O)Nc2cc(Cl)cc(Cl)c2)O1)c1ccccc1	-13
O=C(c1ccccn1)N1C[C@@H]2[C@H](c3ccccc31)[C@H](CO)N2C(=O)C1CCCC1	0
C/C=C/c1ccc([C@H]2[C@@H](CNC(=O)c3ccncc3)N(C(=O)CC)[C@H]2CO)cc1	-15
C[C@H](CO)N1C[C@H](C)[C@@H](CN(C)S(=O)(=O)c2cccs2)Oc2c(NC(=O)C3CCOCC3)cccc2C1=O	10
CN1[C@@H]2c3cccc(=O)n3C[C@H]1[C@H](CO)[C@H]2C(=O)NCC1CCCCC1	-7
CO[C@@H]1CN(C)C(=O)c2ccc(NS(=O)(=O)c3ccccc3)cc2OC[C@H](C)N(C)C[C@H]1C	2
CN(C)C(=O)[C@H]1[C@H](CO)[C@H]2Cn3c(ccc(-c4ccccc4)c3=O)[C@@H]1N2C(=O)C1CCCC1	0
C[C@@H]1CN([C@@H](C)CO)C(=O)c2cccc(NC(=O)C3CCCCC3)c2O[C@H]1CN(C)C(=O)Nc1cccc2ccccc12	-10
C/C=C/c1ccc([C@H]2[C@@H](CO)N(C(C)=O)[C@@H]2CN(C(=O)COC)C(C)C)cc1	-1
O=C(c1cccc(F)c1)N1CCCCN2[C@H](CO)[C@@H](c3ccc(-c4cncnc4)cc3)[C@H]2C1	23
COc1ccc(NC(=O)Nc2ccc3c(c2)C(=O)N([C@@H](C)CO)C[C@@H](C)[C@H](CN(C)C)O3)cc1	8
CCC(=O)N1[C@H](CO)[C@@H](c2ccccc2)[C@H]1CN(C)C(=O)CN1CCOCC1	-4
C[C@@H]1CN([C@@H](C)CO)C(=O)c2cccc(NS(=O)(=O)c3ccc(Cl)cc3)c2O[C@@H]1CN(C)C(=O)NC1CCCCC1	14
COCC(=O)N1C[C@@H]2[C@H](c3ccccc31)[C@@H](CO)N2C(=O)Nc1ccccc1Cl	4
CO[C@@H]1CN(C)C(=O)c2cc(NC(=O)C3CCCC3)ccc2OC[C@H](C)N(CC2CC2)C[C@@H]1C	-4
C[C@@H]1CN([C@H](C)CO)C(=O)c2cccc(NC(=O)Nc3ccc4c(c3)OCO4)c2O[C@H]1CN(C)C(=O)NC1CCCCC1	-5
OC[C@@H]1[C@H](c2ccc(-c3ccc(F)cc3)cc2)[C@@H]2CN(CCC(F)(F)F)CCCCN12	7
COc1ccccc1-c1ccc2c(c1)[C@@H]1[C@@H](CCN1S(=O)(=O)c1ccccc1)[C@H](CO)N2	2
CC(C)NC(=O)Nc1ccc2c(c1)C(=O)N([C@H](C)CO)C[C@@H](C)[C@@H](CN(C)Cc1ccc(Oc3ccccc3)cc1)O2	-3

# Later entries
structure	UUG fidelity
COc1ccc(S(=O)(=O)N(C)C[C@@H]2Oc3ccc(NS(=O)(=O)c4ccc(Cl)cc4)cc3C(=O)N([C@@H](C)CO)C[C@@H]2C)cc1	-10
C[C@H](CO)N1C[C@H](C)[C@@H](CN(C)Cc2ccc(Cl)c(Cl)c2)Oc2ccc(NC(=O)Cc3ccccc3)cc2C1=O	-2
CN1c2ccc(C3=CCCCC3)cc2[C@@H]2[C@@H](CCN2C(=O)Nc2ccccc2F)[C@@H]1CO	-15
CO[C@H]1CN(C)C(=O)c2cc(NC(=O)c3ccccc3)ccc2OC[C@H](C)N(C)C[C@@H]1C	3
N#Cc1ccc(-c2ccc3c(c2)[C@H]2[C@H](CCN2C(=O)C2CCCCC2)[C@H](CO)N3)cc1	-5
N#Cc1cccc(-c2ccc([C@@H]3[C@@H](CO)N4CCCCN(Cc5ccccc5F)C[C@H]34)cc2)c1	-8
CO[C@@H]1CN(C)C(=O)c2ccc(NC(=O)C3CC3)cc2OC[C@H](C)N(Cc2ccc(F)cc2)C[C@H]1C	17
OC[C@@H]1[C@@H](c2ccc(-c3ccc(F)cc3)cc2)[C@H]2CN(Cc3ccncc3)CCCCN12	-12
CO[C@H]1CN(C)C(=O)c2ccc(NC(=O)C3CCCCC3)cc2OC[C@H](C)N(C)C[C@H]1C	18
O=C(C[C@@H]1C[C@@H]2c3cc(NC(=O)NC4CCCC4)ccc3O[C@@H]2[C@H](CO)O1)NCc1ccc(-c2ccccc2)cc1	-17
CCC(=O)N1[C@H](CO)[C@@H]2c3ccccc3N(S(=O)(=O)c3ccc(F)cc3)C[C@@H]21	-1
COc1ccccc1S(=O)(=O)N1CC[C@H]2[C@H](CO)Nc3ccc(-c4ccccc4F)cc3[C@H]21	-26
Cc1ccccc1S(=O)(=O)N1C[C@H](O)COC[C@H]2O[C@H](CC(=O)N3CCCCC3)CC[C@@H]21	0
CO[C@H]1CN(C)C(=O)c2cc(NC(=O)C3CCCC3)ccc2OC[C@H](C)N(CC2CC2)C[C@@H]1C	-10
O=C(c1cccnc1)N1C[C@H]2[C@@H](c3ccccc31)[C@@H](CO)N2C(=O)Nc1ccccc1	65
O=C(C[C@H]1CC[C@H]2[C@@H](COC[C@H](O)CN2Cc2ccncc2)O1)NCc1ccncc1	-5
COc1ccc(CN(C)C[C@H]2Oc3ccc(NS(C)(=O)=O)cc3C(=O)N([C@@H](C)CO)C[C@H]2C)cc1	-6
COc1cccc(-c2ccc([C@H]3[C@@H](CO)N4CCCCN(C(=O)c5ccc6c(c5)OCO6)C[C@@H]34)cc2)c1	12
O=C(C[C@@H]1CC[C@H]2[C@@H](COC[C@@H](O)CN2Cc2ccccc2F)O1)N1CCc2ccccc2C1	6
CN(C[C@@H]1N[C@H](CO)[C@@H]1c1ccc(-c2cccc(F)c2)cc1)C(=O)C1CCC1	-10

# Next section:
structure	UUG fidelity
C[C@H](CO)N1C[C@H](C)[C@H](CN(C)S(C)(=O)=O)Oc2c(NC(=O)NC3CCCCC3)cccc2C1=O	-2
O=C(c1ccccn1)N1C[C@@H]2[C@H](c3ccccc31)[C@@H](CO)N2C(=O)c1ccccn1	-9
CO[C@H]1CN(C)C(=O)c2cc(NC(=O)c3cccc(F)c3)ccc2OC[C@H](C)NC[C@@H]1C	-13
COc1ccc(NC(=O)Nc2ccc3c(c2)CC(=O)N([C@H](C)CO)C[C@H](C)[C@H](CN(C)C(=O)Nc2ccc(F)cc2)O3)cc1	26
COc1ccccc1NC(=O)N1CCCCN2[C@H](CO)[C@H](c3ccc(-c4ccc(C)cc4)cc3)[C@H]2C1	13
N#Cc1ccc(-c2ccc3c(c2)[C@H]2[C@H](CCN2S(=O)(=O)c2cccc(F)c2)[C@@H](CO)N3)cc1	2
CO[C@H]1CN(C)C(=O)c2ccc(NC(=O)C3CCCC3)cc2OC[C@H](C)NC[C@H]1C	-2
COCCN(C[C@@H]1[C@@H](c2ccccc2)[C@H](CO)N1C(C)=O)C(=O)c1ccncc1	-2
C[C@H]1CN([C@@H](C)CO)C(=O)Cc2cc(NS(=O)(=O)c3ccccc3)ccc2O[C@@H]1CN(C)CC1CC1	-10
O=S(=O)(c1ccc(F)cc1)N1CC[C@H]2[C@H](CO)Nc3ccc(-c4ccc(F)cc4)cc3[C@H]21	16
C[C@@H]1CN([C@@H](C)CO)C(=O)Cc2cc(NC(=O)NC3CCCCC3)ccc2O[C@H]1CN(C)C(=O)Nc1ccc(F)cc1	14
COCC(=O)N1CCCCN2[C@H](CO)[C@H](c3ccc(C#Cc4ccccc4)cc3)[C@@H]2C1	-5
C/C=C/c1ccc([C@H]2[C@@H](CO)N(C(=O)NCCC)[C@@H]2CNC(=O)C2CCC2)cc1	-5
COCC(=O)N1[C@@H]2CN(C(=O)Nc3ccccc3Cl)c3ccccc3[C@@H]2[C@@H]1CO	-11
CC(=O)N1[C@@H](CO)[C@@H](c2ccccc2)[C@@H]1CN(C(=O)c1cccc(F)c1)C(C)C	-3
Cc1cccc(S(=O)(=O)N2CCCCN3[C@@H](CO)[C@@H](c4ccc(-c5ccccc5)cc4)[C@@H]3C2)c1	4
O=C(C1CC1)N1CC[C@@H]2[C@H]1c1cc(Br)ccc1N[C@@H]2CO	-15
COc1ccc(NC(=O)N(C)C[C@@H]2Oc3ccc(NC(=O)CCN4CCOCC4)cc3CC(=O)N([C@@H](C)CO)C[C@H]2C)cc1	5
C[C@@H]1CN([C@@H](C)CO)C(=O)c2cccc(NS(=O)(=O)c3cccs3)c2O[C@H]1CN(C)C(=O)NC1CCCCC1	16
CS(=O)(=O)N1CCCCN2[C@H](CO)[C@H](c3ccc(C#Cc4ccccn4)cc3)[C@@H]2C1	28

# Carrying on:
structure	UUG fidelity
COc1ccc(NC(=O)N(C)C[C@H]2Oc3ccc(NC(=O)C4CCCCC4)cc3C(=O)N([C@H](C)CO)C[C@H]2C)cc1	7
CCC(=O)N1C[C@H](C)[C@@H](OC)CN(C)C(=O)c2ccc(NC(=O)c3cnccn3)cc2OC[C@H]1C	-11
COCC(=O)N1C[C@@H](C)[C@@H](OC)CN(C)C(=O)c2cc(NC(=O)c3ccc(F)cc3)ccc2OC[C@H]1C	14
Cc1cccc(-c2ccc([C@H]3[C@@H](CO)N4CCCCN(Cc5cccnc5)C[C@@H]34)cc2)c1	-6
C[C@H](CO)N1C[C@H](C)[C@H](CN(C)CC2CCCCC2)Oc2c(NC(=O)Nc3cccc4ccccc34)cccc2C1=O	4
COCCNC(=O)C[C@H]1CC[C@@H]2[C@H](COc3ccc(NC(=O)c4cnccn4)cc3C(=O)N2C)O1	-14
CN(C)C(=O)C[C@@H]1CC[C@@H]2[C@@H](COc3ccc(NC(=O)C4CC4)cc3C(=O)N2C)O1	-7
C[C@@H]1CN([C@H](C)CO)C(=O)c2c(c3ccccc3n2C)-c2ccccc2CO[C@@H]1CN(C)Cc1ccncc1	-2
C[C@@H]1CN([C@@H](C)CO)C(=O)c2cccc(NC(=O)C3CCOCC3)c2O[C@@H]1CN(C)Cc1ccc(C(F)(F)F)cc1	-7
C[C@H](CO)N1C[C@H](C)[C@H](CN(C)Cc2ccc(C(=O)O)cc2)Oc2ccc(NC(=O)NC3CCCCC3)cc2CC1=O	-4
O=C(C[C@H]1CC[C@H]2[C@@H](COC[C@H](O)CN2S(=O)(=O)c2cccc(F)c2)O1)NCCCN1CCOCC1	-9
CNC[C@@H]1Oc2c(NS(=O)(=O)c3ccccc3)cccc2C(=O)N([C@H](C)CO)C[C@@H]1C	-5
C[C@H]1CN([C@@H](C)CO)C(=O)c2cccc(NS(=O)(=O)c3cn(C)cn3)c2O[C@H]1CN(C)C(=O)NC1CCCCC1	-9
CCCC#Cc1ccc([C@@H]2[C@H]3CN(CC4CC4)CCCCN3[C@H]2CO)cc1	5
COc1ccc(NC(=O)N(C)C[C@@H]2Oc3ccc(NC(=O)CCN4CCOCC4)cc3CC(=O)N([C@H](C)CO)C[C@H]2C)cc1	-1
CN(C)CC(=O)Nc1ccc2c(c1)[C@@H]1C[C@@H](CC(=O)NCc3ccc(Cl)cc3)O[C@H](CO)[C@@H]1O2	44
CN(C)C(=O)C[C@H]1C[C@H]2c3cc(NC(=O)Nc4ccc(C(F)(F)F)cc4)ccc3O[C@H]2[C@@H](CO)O1	1
C[C@@H]1CN([C@@H](C)CO)C(=O)c2cccc(NS(=O)(=O)c3ccc(Cl)cc3)c2O[C@H]1CN(C)Cc1ccncc1	-14
COc1ccc(S(=O)(=O)Nc2ccc3c(c2)C(=O)N([C@H](C)CO)C[C@H](C)[C@@H](CN(C)Cc2ccc4c(c2)OCO4)O3)cc1	9
C[C@@H]1CN([C@H](C)CO)C(=O)c2cc(NC(=O)C3CCCCC3)ccc2O[C@@H]1CN(C)Cc1ccc(Cl)c(Cl)c1	0

# As entered above.
# `C[C@H](CO)N1C[C@H](C)[C@@H](CN(C)S(=O)(=O)c2cccs2)Oc2c(NC(=O)C3CCOCC3)cccc2C1=O` – UUG fidelity: 10
# `C[C@@H]1CN([C@H](C)CO)C(=O)c2c(c3ccccc3n2C)-c2ccccc2CO[C@@H]1CN(C)Cc1ccncc1` – UUG fidelity: -2
# `CO[C@H]1CN(C)C(=O)c2cc(NC(=O)c3cccc(F)c3)ccc2OC[C@H](C)NC[C@@H]1C` – UUG fidelity: -13
# `COc1ccc(NC(=O)N(C)C[C@@H]2Oc3ccc(NC(=O)CCN4CCOCC4)cc3CC(=O)N([C@H](C)CO)C[C@H]2C)cc1` – UUG fidelity: -1

# Continuation.
structure	UUG fidelity
COc1ccc(CN(C)C[C@H]2Oc3c(NS(=O)(=O)c4ccc(F)cc4)cccc3C(=O)N([C@@H](C)CO)C[C@H]2C)cc1	-4
C[C@@H](NC(=O)C[C@H]1C[C@H]2c3cc(NC(=O)CC4CC4)ccc3O[C@H]2[C@H](CO)O1)c1ccccc1	-2
C/C=C/c1ccc([C@@H]2[C@H](CO)N(C(=O)Cc3cccnc3)[C@H]2CNC(C)=O)cc1	6
C[C@H]1CN([C@@H](C)CO)C(=O)c2cccc(NS(=O)(=O)c3cn(C)cn3)c2O[C@H]1CN(C)Cc1ccc(-c2ccccc2)cc1	-1
CN1CCN(C(=O)C[C@H]2CC[C@@H]3[C@H](COC[C@@H](O)CN3C(=O)Nc3cc(Cl)cc(Cl)c3)O2)CC1	1
O=C(C[C@H]1CC[C@H]2[C@@H](COC[C@@H](O)CN2CC2CCOCC2)O1)N1CCOCC1	4
CN1C(=O)c2cc(NC(=O)c3ccccc3Cl)ccc2OC[C@H]2O[C@H](CC(=O)O)CC[C@H]21	-9

# Ordered by SMILES length (lowest first): part of the list above.
structure	UUG fidelity
O=C(C[C@H]1CC[C@H]2[C@@H](COC[C@@H](O)CN2CC2CCOCC2)O1)N1CCOCC1	4
C/C=C/c1ccc([C@@H]2[C@H](CO)N(C(=O)Cc3cccnc3)[C@H]2CNC(C)=O)cc1	6
C[C@@H](NC(=O)C[C@H]1C[C@H]2c3cc(NC(=O)CC4CC4)ccc3O[C@H]2[C@H](CO)O1)c1ccccc1	-2
C[C@@H]1CN([C@H](C)CO)C(=O)c2cc(NC(=O)C3CCCCC3)ccc2O[C@@H]1CN(C)Cc1ccc(Cl)c(Cl)c1	0
COc1ccc(CN(C)C[C@H]2Oc3c(NS(=O)(=O)c4ccc(F)cc4)cccc3C(=O)N([C@@H](C)CO)C[C@H]2C)cc1	-4
COc1ccc(S(=O)(=O)Nc2ccc3c(c2)C(=O)N([C@H](C)CO)C[C@H](C)[C@@H](CN(C)Cc2ccc4c(c2)OCO4)O3)cc1	9

# Bioassay records from PubChem BioAssay.
